Screening data from PubChem BioAssay.
Beta cell apopt = beta cell apoptosis inhibition. INS-1E cytokine-induced death, ATP luminescence, 48 h; percent of positive-control rescue, neutral wells zero. protection from apoptosis, % (concentration not given with the values). 300,000 tested, 0.8% active. AID 435005;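 active = all replicates at 75% or more, or half of them and the mean; inconclusive = half reach 75% but not the mean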;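 note: 0% = cytokine-treated negative control wells and 100% = positive control rescue; higher means more ATP so stronger rescue from cytokine killing; wells of about 40 µL received 100 nL stock; the first replicate is given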
A1 inh = inhibitors of the anti-apoptotic protein A1, read as caspase activation | MEF A1-2A-BIM cells, Caspase-Glo 3/7 luminescence, 3 h; percent of clofoctol response, vehicle zero | caspase activation, % (no concentration beside the values) | 330,000 tested, 0.066% active | AID 2462;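 active = over half of replicate activation scores above 10%, or exactly half above 10 with the replicate mean above 10; inconclusive = replicate mean below 10 yet half the replicates above 10; inactive = over half of replicates below 10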;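 note: wells of about 30 µL received 50 nL stock; many hits fall short of the cut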
Vif A3G = HIV-1 Vif–A3G interaction blockers – biochemical, TR-FRET, GST-Vif 1-94, biotin-A3G peptide, dose response retest, primary screen (AID 1117319); TR-FRET GST-Vif / biotin-A3G peptide binding; higher % means a stronger effect; test concentration not given here; strong numbers were not always called active; one-dose inhibition, %; IC50 in µM for titrated hits; 260,000 tested, 0.57% active;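 active = above the screen mean plus three standard deviations and confirmed in dose response; inconclusive = results disagree or hit not tested in dose response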;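 note: Vif residues 1-94 fused to GST binding biotinylated APOBEC3G peptide 110-148; 0% = full assay without inhibitor and 100% = GST in place of GST-Vif; retest series ran down from 100 µM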
RanGTP-Imp inh = inhibitors of RanGTP-importin-beta interaction, primary screen, biochemical, FRET, CFP-Ran, YFP-importin-beta, homogeneous | 300,000 tested, 1.1% active | AID 2216 | inhibition, % (test concentration not listed) | cell-free CFP-Ran/YFP-importin-beta FRET ratio;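 active = most replicates above 15%; inconclusive = exactly half above 15%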;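 note: 0% = DMSO wells and 100% = Ran loaded with GDP instead of GTP; wells of about 40 µL received 100 nL stock; the first replicate is given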
Ecoli rRNA inh = selective bacterial rRNA inhibition in E. coli; E. coli WT GFP vs humanized-ribosome RFP mutants, fluorescence, 24 h; hits give low values; DMSO median 0, no signal -100; GFP signal change (wild-type ribosome), % (concentration not given with the values); 350,000 tested, 1.6% active; AID 720706;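 active = significant combined selectivity score with lowered wild-type GFP, culture density cut under 30%, mutant RFP and density less affected; inactive = any of these conditions unmet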; note: one replicate is shown; some compounds called inactive have numbers as strong as hits
T cruzi inh = blocks replication of Trypanosoma cruzi; T. cruzi beta-gal in NIH3T3, luminescence, 90 h; inhibition, % (concentration not given with the values); 300,000 tested, 1.4% active; AID 1885;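 active = mean inhibition across valid replicates above about 55%, limit read from the data; inconclusive = mean below that limit but half or more replicates reach it; inactive = mean below it, under half of replicates reach it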;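 note: signal also drops with host cell toxicity which is not excluded here; 0% = plate median of DMSO wells and 100% = zero luminescence signal; higher percent means less beta-gal luminescence so fewer parasites; stock transfer was 50 nL into about 50 µL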
Calb FLC = C. albicans growth modulation with fluconazole | growth inhibition, % (no concentration beside the values) | C. albicans CaCi-2 (fluconazole-resistant clinical isolate) + fluconazole, Alamar Blue growth, 48 h | AID 1979 | 300,000 tested, 0.57% active;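 active = most replicates above 75%; inconclusive = exactly half above 75%; inactive = most below 75%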;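 note: all wells also contain fluconazole at 8 µg/ml as a sub-toxic cotreatment; 0% = median of DMSO wells and 100% = median of geldanamycin control wells; wells of about 8 µL received 7.5 nL stock; the first replicate is given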
MLL AF4-AF9 inh = inhibitors of human MLL-AF4/AF9 interaction | P42568 | AlphaScreen, biotin-AF4 peptide binding to FLAG-AF9 | inhibition, % at 10 µM | 350,000 tested, 0.47% active;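 active = every replicate reaching a set inhibition limit, whatever the replicate mean, cut at about 25% in these data; inconclusive = mean inhibition reaches that limit but some replicates miss it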;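 note: 0% = plate neutral control median and 100% = total signal loss; the record names both 10 and 1 µM as test concentration; the first replicate is given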
Target sequence (P42568 whole entry, looked up): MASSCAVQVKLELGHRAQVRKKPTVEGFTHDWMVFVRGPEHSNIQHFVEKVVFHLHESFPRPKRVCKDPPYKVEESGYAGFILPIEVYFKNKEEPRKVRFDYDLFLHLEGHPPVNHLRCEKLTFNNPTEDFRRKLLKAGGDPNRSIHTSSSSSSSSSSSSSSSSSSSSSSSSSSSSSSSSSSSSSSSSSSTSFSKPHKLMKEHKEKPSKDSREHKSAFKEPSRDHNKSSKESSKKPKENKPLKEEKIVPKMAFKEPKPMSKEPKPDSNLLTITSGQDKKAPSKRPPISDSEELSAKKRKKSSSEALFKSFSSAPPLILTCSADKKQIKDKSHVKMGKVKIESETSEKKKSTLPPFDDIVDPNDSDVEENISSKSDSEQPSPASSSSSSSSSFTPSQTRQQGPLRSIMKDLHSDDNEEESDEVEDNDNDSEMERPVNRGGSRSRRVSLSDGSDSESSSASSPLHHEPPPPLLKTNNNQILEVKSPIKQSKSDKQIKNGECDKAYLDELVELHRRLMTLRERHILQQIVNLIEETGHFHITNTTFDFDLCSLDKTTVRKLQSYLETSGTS
Ecoli rRNA inh OD600 = also measured in Ecoli rRNA inh; calls as there; OD600 change, %; measured here: OD600 growth;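 optical density of the mix in the first replicate; 0 = DMSO median and -100 = no signal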
Ecoli rRNA inh RFP = also measured in Ecoli rRNA inh; calls as there; RFP signal change, %; measured here: RFP humanized mutant strains;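 first replicate; 0 = DMSO median and -100 = no signal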
* hit, by the source's call; u = inconclusive; x = no result given.

SMILES	Beta cell apopt	A1 inh	Vif A3G	RanGTP-Imp inh	Ecoli rRNA inh	Ecoli rRNA inh OD600	Ecoli rRNA inh RFP	T cruzi inh	Calb FLC	MLL AF4-AF9 inh
COc1cccc(NC(=O)CSc2nnc(CNC(=O)c3ccccc3)n2C)c1	0	-0.4	14%	u	x	x	x	5	0	x
Cc1ccc(S(=O)(=O)N(C)C)cc1NC(=O)CN1C(=O)NC2(CCCc3ccccc32)C1=O (centres undefined)	-5	0.3	13%	3.0	x	x	x	2	15	x
O=C(COCc1cc(-c2ccc3c(c2)OCO3)on1)N1CCN(c2ccccc2)CC1	1	1.4	-16%	-2.3	-8	-13	-2.1	-13	-3	-1.0
O=C(CCN1C(=O)/C(=C/c2cccs2)SC1=S)Nc1cccc(C(=O)O)c1	2	-0.9	x	-2.6	2	9	-0.3	-7	3	3.5
COc1ccc(-c2csc(-c3cc4ccccc4oc3=N)n2)cc1	1	0.0	x	-72	x	x	x	-9	-12	x
O=C(OCCN1CCCC1=O)c1cc(F)c(F)c(F)c1F	-2	0.4	16%	5.0	6	-1	0.8	-21	32	-1.7
CCC(Sc1nc2ccccc2o1)C(=O)O (centres undefined)	-4	1.1	0%	1.3	1	7	7.5	-6	-15	-4.8
CCOc1ccc(NC(=O)COc2ccccc2C(=O)NCc2ccccc2)cc1	11	2.0	-2%	x	-2	4	-1.4	x	x	-7.2
CCOc1cc(/C=N/NC(=O)C(N)=O)cc(Br)c1O	3	-0.3	23%	0.1	x	x	x	-11	8	-1.1
Cc1ccccc1NC(=O)c1ccc(Cl)c(NC(=O)c2cccnc2)c1	4	-0.1	8%	-0.9	-4	2	-4.7	-2	-2	1.1
Cc1ccccc1N(C(=O)c1ccco1)C(C(=O)NC1CCCC1)c1cccnc1 (centres undefined)	0	0.8	x	2.5	8	4	0.6	-15	u	-0.7
O=C(CN(C(=O)CCC(=O)Nc1ccccn1)c1ccc(F)cc1)NCCc1ccccc1	5	0.3	x	-2.0	6	4	-2.5	5	4	-2.5

Retrieved one by one from above:
SMILES	Beta cell apopt	A1 inh	Vif A3G	RanGTP-Imp inh	Ecoli rRNA inh	Ecoli rRNA inh OD600	Ecoli rRNA inh RFP	T cruzi inh	Calb FLC	MLL AF4-AF9 inh
Cc1ccccc1NC(=O)c1ccc(Cl)c(NC(=O)c2cccnc2)c1	4	-0.1	8%	-0.9	-4	2	-4.7	-2	-2	1.1
O=C(CN(C(=O)CCC(=O)Nc1ccccn1)c1ccc(F)cc1)NCCc1ccccc1	5	0.3	x	-2.0	6	4	-2.5	5	4	-2.5

The results go on:
SMILES	Beta cell apopt	A1 inh	Vif A3G	RanGTP-Imp inh	Ecoli rRNA inh	Ecoli rRNA inh OD600	Ecoli rRNA inh RFP	T cruzi inh	Calb FLC	MLL AF4-AF9 inh
CC1(C)CC(=O)C(C(O)c2cccc([N+](=O)[O-])c2)C(C)(C)N1 (centres undefined)	-1	-0.1	-3%	2.8	3	10	-7.7	-21	-8	-0.3
CCc1nnc(NC(=O)CN2C(=O)CCC2=O)s1	5	-0.3	2%	u	x	x	x	5	-1	x
O=C1/C(=C/Nc2ccc3c(c2)OCO3)CCc2ccccc21	29	-7.5	27%	8.1	x	x	x	6	4	x
CCOc1ccc(S(=O)(=O)Nc2ccc(C(=O)NCC3(N4CCCCC4)CCCCC3)cc2)cc1	-4	0.1	-11%	5.8	-1	-4	8.6	3	-10	-10
O=C1CC(Cc2ccc(Br)cc2)C(=O)N1c1ccccc1 (centres undefined)	-7	-0.2	-5%	2.5	3	6	-0.9	-3	6	-4.4
COc1cc2c(C(=O)NCCCN3CCN(c4cccc(Cl)c4)CC3)cn(C)c(=O)c2cc1OC	9	1.1	-3%	-1.9	x	x	x	12	10	x
COc1cccc(NC(=O)CN(C)C(=O)c2ccc3c(c2)S(=O)(=O)N=C2CCCCCN23)c1	2	-0.1	5%	1.8	-3	-2	-1.4	-7	10	-2.4
Cc1ccc(SCC(=O)NCCCc2ccccc2)cc1	-1	-1.2	4%	-4.0	-9	-18	2.8	2	-4	1.9
COc1ccc(S(=O)(=O)/N=C2/NC(=O)/C(=C/c3ccco3)S2)cc1	-2	-1.3	x	2.5	-6	-10	2.8	-17	38	-5.2
COC(=O)Oc1ccc(/C=N/NC(=O)CSCc2ccccc2Br)cc1OC	0	0.2	0%	1.2	x	x	x	-12	-2	x
CCC(C(=O)N/N=C/c1cccnc1)c1ccccc1 (centres undefined)	-3	1.2	x	3.9	2	1	-0.5	-17	-12	1.2
COc1ccccc1C(=O)Nc1ccc(Oc2nnc(-c3ccc(C)cc3)c3ccccc23)cc1	22	-0.7	x	2.6	x	x	x	19	-4	x
Cc1ccc(OCC(=O)N/N=C\c2cn(Cc3ccccc3)c3ccccc23)cc1C	-7	0.0	x	4.7	x	x	x	0	-8	x
O=C(NNC(=O)C(Cl)Cl)c1cnn(-c2ccccc2)c1C(F)(F)F	2	0.2	1%	-3.6	5	5	0.8	-12	-5	-1.2
CCOC(=O)N1CCN(c2cc(C)c(C(C)=O)cc2F)CC1	-6	-0.5	-4%	3.1	5	0	-1.9	-12	-5	-36
Cc1cccc(N(CC(=O)N2CCCCCC2)S(C)(=O)=O)c1C	-10	1.1	x	u	15	5	5.4	-7	-22	-0.9
Cc1ccc(-n2cccc2C(=S)N=P(N(C)C)(N(C)C)N(C)C)cc1	102*	-0.4	15%	-1.3	x	x	x	59*	3	x
CC(C)(C)Sc1ccc(N)nc1	1	1.2	3%	4.0	x	x	x	10	-2	x
O=C1/C(=C\c2ccccc2)SC(=S)N1CCC(=O)N1CCCCC1CCO (centres undefined)	-48	0.3	x	u	-1	3	-0.1	-3	0	7.6
CCOP(=O)(OCC)c1nc(-c2cccc3ccccc23)oc1N1CCOCC1	-3	0.1	x	3.7	x	x	x	-5	8	x
Cc1cc(C)c(NC(=O)Cn2nc(-c3ccccc3)nc2-c2ccccc2)c(C)c1	-4	0.8	-5%	-3.2	1	2	7.7	-2	-13	3.7
COc1ccc(OC)c(S(=O)(=O)Nc2ccccc2C(=O)O)c1	-6	-0.3	9%	-1.6	x	x	x	-5	60	x
O=C(NCc1ccccc1)c1ccc(CS(=O)(=O)Cc2ccccc2F)o1	-9	0.1	8%	-3.3	5	6	4.9	4	5	1.8
Cc1ccc(N(Cc2ccco2)C(=O)c2ccc(N3CCCCC3)c([N+](=O)[O-])c2)cc1	29	-1.6	4%	-3.1	6	-1	-0.7	56*	1	9.8
O=C(CN1C(=O)NC2NC(=O)NC21)N/N=C/c1ccccc1F (centres undefined)	3	0.0	10%	u	x	x	x	-15	-9	x
CC(C)(C)C(=O)NC1CCN(S(C)(=O)=O)CC1	x	-0.6	5%	8.8	12	-3	-0.9	-21	-19	-0.4
Cc1ccccc1N1CCN(C2CCCN(C(=O)CCC(=O)N(C)C)C2)CC1 (centres undefined)	x	0.3	x	3.6	6	11	0.5	-5	24	1.2
CCC(=O)Nc1nn(CC(C)C)c2nc3ccc(C)cc3cc12	-4	-0.2	-9%	24*	6	18	-1.7	0	22	-4.2
COc1ccc(CNC(=O)/C(C)=C\C(=O)O)cc1	-5	0.2	x	0.5	x	x	x	-5	-17	-1.6
O=C(CS(=O)(=O)c1c[nH]c2ccccc12)NC1CCCCC1	x	1.6	-4%	u	4	4	0.7	-3	1	-5.8
CCCCC(CC)C(=O)Nc1cc(C(=O)NCc2ccc(C)cc2)ccc1N1CCC2(CC1)CC(c1cccc(Br)c1)=NO2 (centres undefined)	-10	0.5	x	x	-12	-11	-3.6	x	x	-0.6
Cc1cccc(NC(=O)CNC(=O)c2ccc(-n3cncn3)c([N+](=O)[O-])c2)c1C	4	-1.0	-8%	-1.1	3	10	2.7	-5	-3	-1.6
Cc1nnc(NC(=O)CSc2cn(CCNC(=O)c3ccccc3)c3ccccc23)s1	-5	-0.6	0%	-0.5	-2	-4	-0.7	-5	5	-1.0
CC(=O)NC1=NN(C(C)=O)C(C)(c2cccs2)S1 (centres undefined)	-3	-0.5	3%	-2.1	x	x	x	-2	4	x
COc1ccc(N(CC(=O)Nc2cccc(N(C)S(C)(=O)=O)c2)S(=O)(=O)c2ccc(F)cc2)cc1	2	-0.7	-6%	6.1	-18	-21	-6.0	6	5	4.6
CN(C)CCOCCOc1ccc(Cl)c2ccccc12	-1	1.2	3%	-1.5	-19*	-8.7*	3.2*	33	4	4.7
CCc1ccc(N=CC23c4ccccc4C(c4ccccc42)C2C(=O)N(c4ccc(OC)cc4)C(=O)C23)cc1 (centres undefined)	x	0.9	1%	-7.4	x	x	x	4	-17	x
Cc1nnc(SCC(=O)N(C(C)C)C(C)C)nc1C	-8	0.5	2%	4.5	x	x	x	-13	7	x
COC(=O)c1ccc(OCC(O)CN2C(=O)c3ccccc3C2=O)cc1 (centres undefined)	-4	-0.7	0%	u	3	12	1.0	2	-5	1.3
COc1ccc(C2c3c(ccc4ccccc34)Oc3ncn4nc(Cc5ccc(OC)c(OC)c5)nc4c32)cc1 (centres undefined)	-3	0.1	x	-2.4	x	x	x	-16	-16	x
CCC1c2ccc(C)n2CCN1C(=O)Nc1cc(Cl)ccc1OC (centres undefined)	-1	0.7	5%	11	x	x	x	7	-5	x
CCCn1nnnc1SCC(=O)NCc1ccc2c(c1)OCO2	-4	-0.8	26%	3.2	x	x	x	-7	1	x
CCc1cc(C(=O)Nc2cc(S(=O)(=O)N(CC)CC)ccc2N2CCN(C)CC2)sc1C	0	0.2	2%	-1.8	3	14	1.7	7	x	-3.8
CN(C)C(CNC(=O)CCc1c[nH]c2ccccc12)c1ccccc1 (centres undefined)	3	0.2	0%	5.6	3	8	0.0	-3	-1	3.5
Cc1ccccc1CN1CCC(n2nccc2NC(=O)c2cccnc2)CC1	-6	1.2	x	0.6	7	-1	0.1	9	-1	-2.6
Cc1ccc2cc(C)c3nnc(SCC(=O)NCc4ccco4)n3c2c1	0	-0.2	5%	10	-4	-8	-3.6	18	-10	-0.8
COc1cc(NC(=O)C2=CC(c3ccco3)=NS(=O)(=O)N2C)cc(OC)c1OC	1	0.1	x	-0.3	7	12	-0.2	-3	-2	-1.0
COc1cc(OC)c2c(-c3ccccc3)cc(=O)oc2c1C(CCN1CCCCC1)c1ccc(N(C)C)cc1 (centres undefined)	42	-0.8	x	-2.6	x	x	x	41	-16	x
CCCc1ccc(-c2csc(NC(=O)Cc3cccs3)n2)cc1	6	-0.3	72%	-4.4	x	x	x	0	2	x
Cc1cccc(OCCCn2c(=O)oc3ccccc32)c1	0	-3.0	-4%	u	-31	-28	-8.5	6	10	-1.0
COc1ccc(NC(=O)/C(N=Nc2cc(S(=O)(=O)Nc3ccc(OC)cc3)ccc2OC)=C(\C)O)cc1	6	-0.2	-4%	0.6	6	10	0.3	10	-5	-2.5
O=C(Cc1ccc(F)cc1)Nc1cccc(S(=O)(=O)N2CCCC2)c1	-1	-0.1	-1%	-4.9	-3	-8	-1.4	-1	6	1.0

The list is partial (hit frequency here may not be typical).
